From PubChem
Autofluor counter – compound fluorescence in toxin protease inhibitor counterscreen | 360,000 compounds, 3.1% hits | compound autofluorescence counterscreen, microsphere flow cytometry; hits give high values | fluorescence intensity (no concentration beside the values);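 active means at least 3 SD above the mean of all compounds, about 16000 in these data; inconclusive means too few beads counted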;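 further: 100 nL of 1 mM stock went into each well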
Mtb hypoxia rep – reduces hypoxia-regulated biosensor signal in M. tuberculosis; fluorescence inhibition, % (concentration not given with the values); M. tuberculosis hypoxia-regulated fluorescent reporter, fluorescence; 300,000 compounds, 0.1% hits; AID 1159583;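 active means 35 to 45% if threefold the growth effect, above 45% if 1.5-fold the growth effect; inactive means the rest, general growth blockers included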;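 further: wells of about 50 µL received 100 nL stock; 0% = vehicle wells and 100% = reference inhibitor wells; whole bacteria with a GFP reporter of the hypoxia response; strong numbers were not always called active; many hits fall short of the cut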
BJeLR viability – BJeLR cell viability loss. BJeLR (HRASV12) viability, CellTiter-Glo ATP luminescence, 48 h; reference of the scale not given here. inhibition, % (concentration not given with the values). 300,000 compounds, 0.17% hits;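 active means replicate mean above 50%; inconclusive means above 50% but judged a plate artefact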;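 further: 50 nL library stock added to about 25 µL; numbers are from one replicate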
Sa ugtP lethal – growth inhibition of S. aureus ugtP deletion strain; S. aureus RN4220 ugtP deletion, OD600 growth, 16 h; some inactives read as strong as hits; growth inhibition, % (concentration not given with the values); 330,000 compounds, 0.54% hits; AID 1259309;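 active means z-score under -3 and OD600 up to 0.15 on both plates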;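 further: plate controls were untreated wells for no effect and antibiotic for full effect; wells of about 80 µL received 100 nL stock; the first replicate is given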
Sa RN4220 lethal – S. aureus RN4220 growth inhibition; inhibition, % (no concentration beside the values); 330,000 compounds, 0.33% hits; OD600, 16 h;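 active means z-score of -3 or lower and OD600 up to 0.18 on both plates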;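 further: plate controls were untreated cells for no effect and reference antibiotic for full effect; stock transfer was 100 nL into about 80 µL; one replicate is shown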
PrP 5UTR inh – inhibition of PrP 5' UTR reporter expression | cell-based PrP 5' UTR mRNA reporter, plate reader | inhibition, % (test concentration not listed) | 340,000 compounds, 0.35% hits | AID 488862;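 active means every replicate at 50% or more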;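 further: 0 = median of the neutral control wells; tested in H4 reporter cells; numbers are from one replicate; inactives centre near -14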
Mtb hypoxia rep growth – second read-out of Mtb hypoxia rep, no call of its own (marks repeat the call); growth inhibition, %; measured here: M. tuberculosis growth (absorbance);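 0% = vehicle and 100% = reference antibiotic; read after six days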
Starred values were filed as active, the others as inactive; u = inconclusive; x = not tested or not shown.

SMILES	Autofluor counter	Mtb hypoxia rep	Mtb hypoxia rep growth	BJeLR viability	Sa ugtP lethal	Sa RN4220 lethal	PrP 5UTR inh
O=C(C1CCC1)N1CCc2cc(S(=O)(=O)N3CCCCC3)ccc21	4240	4	8	-5	3	-1.3	-6
CN(Cc1cnn(C)c1)C(=O)CC1C(=O)NCCN1Cc1cccc(Oc2ccccc2)c1 (stereo unspecified)	4386	8	-7	9	10	2.2	-24
O=C(NC(=S)Nc1ccc(O)cc1)c1cncc(Br)c1	5513	-3	-2	-5	59	3.9	-30
COc1ccc(CCNc2oc(-c3ccc(OC)c(OC)c3)nc2P(=O)(OC)OC)cc1OC	2191	2	3	7	6	6.4	-2
Cc1ccc(NC(=O)c2cccc(NC(=O)CCC(=O)O)c2)cc1C	2934	-10	-6	0	1	-2.3	-9
Cc1ccc(NC(=O)CSCC(=O)OCc2cc(=O)oc3cc(O)ccc23)c(C)c1	4410	3	1	-1	4	4.1	-4
CCn1nnc2cc(C(=O)Nc3cc(Cl)ccc3C)ccc21	4232	7	1	x	8	0.2	-11
Cn1cnnc1SC1c2cccc3cccc(c23)C1NS(=O)(=O)c1ccccc1 (stereo unspecified)	2197	1	13	-6	-5	8.2	-13
Nc1nonc1-n1nnc(C(=O)NN=Cc2ccccc2F)c1CN1CCc2ccccc21	x	-5	2	x	-8	1.9	x
COc1ccc2[nH]c(=O)c(CN(Cc3ccccc3)Cc3nnnn3CC3CCCO3)cc2c1 (stereo unspecified)	6771	14	4	-6	12	7.6	-24
O=C(N/N=C/c1ccc(N2CCOCC2)s1)c1ccccc1Br	2642	x	x	2	x	x	-26
COc1ccc(C=NNC(=O)c2ccc(C)nc2)cc1O	x	-2	5	x	7	0.6	x
CN(Cc1ccccc1)C(=O)CN1CCN(C(c2ccccc2)c2ccccc2)CC1	3227	12	5	-5	-3	6.7	-7
COc1ccccc1NC(=O)Cn1cnc2sc(C(=O)Nc3cc(OC)c(OC)c(OC)c3)c(C)c2c1=O	4445	-9	-6	-5	0	7.4	-21
C=CCn1c(CSc2ccccc2[N+](=O)[O-])n[nH]c1=S	3606	7	1	6	-3	3.4	-10

A second format for part of the listing above.
| structure | Autofluor counter | Mtb hypoxia rep | Mtb hypoxia rep growth | BJeLR viability | Sa ugtP lethal | Sa RN4220 lethal | PrP 5UTR inh |
| --- | --- | --- | --- | --- | --- | --- | --- |
| O=C(C1CCC1)N1CCc2cc(S(=O)(=O)N3CCCCC3)ccc21 | 4240 | 4 | 8 | -5 | 3 | -1.3 | -6 |
| CN(Cc1cnn(C)c1)C(=O)CC1C(=O)NCCN1Cc1cccc(Oc2ccccc2)c1 (stereo unspecified) | 4386 | 8 | -7 | 9 | 10 | 2.2 | -24 |

Structures shown so far that contain two or more sulfur atoms, in the order listed:
SMILES	Autofluor counter	Mtb hypoxia rep	Mtb hypoxia rep growth	BJeLR viability	Sa ugtP lethal	Sa RN4220 lethal	PrP 5UTR inh
Cn1cnnc1SC1c2cccc3cccc(c23)C1NS(=O)(=O)c1ccccc1 (stereo unspecified)	2197	1	13	-6	-5	8.2	-13
C=CCn1c(CSc2ccccc2[N+](=O)[O-])n[nH]c1=S	3606	7	1	6	-3	3.4	-10

(further entries)
SMILES	Autofluor counter	Mtb hypoxia rep	Mtb hypoxia rep growth	BJeLR viability	Sa ugtP lethal	Sa RN4220 lethal	PrP 5UTR inh
Cc1ccc2[nH]cc(C(=O)CCl)c2c1	2706	16	18	54*	31	16	-46
CCCCCCC(=O)NNC(=O)c1c(O)c2ccccc2n(CCC)c1=O	3939	4	5	-2	29	28	-4
O=C(C(Cl)Cl)N1c2ccccc2OCC1c1ccccc1 (stereo unspecified)	22852*	13	7	4	-1	4.3	-16
Cc1ccc(N(CC2CO2)S(=O)(=O)c2ccc(C)cc2)cc1 (stereo unspecified)	4191	8	8	5	5	4.9	-14
CCC(NC(=O)c1ccncc1)c1ccccc1 (stereo unspecified)	4880	-5	9	24	-4	3.3	-19
Cc1ccc2c(c1)C(=O)C(=O)N2Cc1ccccc1	3569	2	6	x	-8	7.6	-18
CCCn1nnc(NC(=S)NC(=O)c2ccccc2OC)n1	4422	33*	75*	x	3	28	-19
Cc1ccc(-n2nnnc2SCC(=O)Nc2c(C)n(C)n(-c3ccccc3)c2=O)cc1	11254	15	9	-15	-1	4.1	-10
COc1ccc(CC(=O)Nc2ccccc2N2CCCC2)cc1OC	5419	0	0	10	-2	-0.1	3
C=CCn1c(Cc2csc(N)n2)nnc1SCC(=O)Nc1ccc(C(=O)OCC)cc1	7701	-11	-11	-12	3	3.8	-30
CC(C)CCCN1C(N(C)C)=NCC1Cc1ccccc1 (stereo unspecified)	x	10	8	x	0	4.3	x
Cn1c(=O)c(Sc2ccc(Cl)cc2)c(O)c2ccccc21	2330	3	6	10	21	-6.1	-22
O=C(CN(c1ccc(F)cc1)S(=O)(=O)c1ccc2c(c1)OCCO2)NCc1cccnc1	3454	1	1	-5	-2	-9.5	-24
CC1CCCN(S(=O)(=O)c2cccc(C(=O)NCC3CCCO3)c2)C1 (stereo unspecified)	3463	7	3	x	1	-0.6	-35
O=C(C1=C[C@H](c2coc3ccccc3c2=O)C[C@H](OCCCCO)O1)N1CCOCC1	2939	x	x	13	x	x	-2

Looked up above.
Value of COc1ccc(CC(=O)Nc2ccccc2N2CCCC2)cc1OC under Autofluor counter: 5419
Value of COc1ccc2[nH]c(=O)c(CN(Cc3ccccc3)Cc3nnnn3CC3CCCO3)cc2c1 (stereo unspecified) under Autofluor counter: 6771

(listing goes on)
SMILES	Autofluor counter	Mtb hypoxia rep	Mtb hypoxia rep growth	BJeLR viability	Sa ugtP lethal	Sa RN4220 lethal	PrP 5UTR inh
Cc1ccc2oc(C(=O)N3CCC(O)(c4ccccc4)CC3)c(C)c2c1	4293	13	7	10	21	-7.3	-14
COc1ccc(CNC(=O)c2cnc(C)cn2)cc1	3177	x	x	-2	x	x	3
COc1ccc2cc(C(=O)NN=Cc3sc4ccccc4c3O)ccc2c1	x	10	3	x	-7	28	x
CCc1ccc(N2C(=O)NC(=O)C(CCc3ccncc3)(CCc3ccncc3)C2=O)cc1	2106	5	3	-8	-2	4.4	-91
O=C(NCC1CC1(Cl)Cl)Nc1ccc(Cl)c(Cl)c1 (stereo unspecified)	4248	x	x	-10	51	57	-38
COC(=O)/C(C(C)=O)=C(/C=C/C=C/N(C)C)N(C)C	8004	0	0	1	-4	-1.3	-5
CCn1c2ccc(C)cc2c2nnc(NN)nc21	10018	x	x	5	x	x	-13
CCCn1nnnc1NC(=O)c1cccs1	8955	1	-5	2	4	3.0	-15
CCNC(=O)c1ccc(C23CC4CC(CC(C4)C2)C3)o1	4316	-7	5	-2	6	3.8	-15
C=C1CCN(C(C)C(=O)OC)S(=O)(=O)c2ccccc21 (stereo unspecified)	3997	2	8	12	-2	5.0	-16
Cc1ccc(C)c2[nH]c(=O)c(CN(CCN3CCCC3)C(=O)Nc3cccc(Cl)c3)cc12	5740	8	15	0	8	5.2	-1
CCOC(=O)c1cc(C(O)(C(F)(F)F)C(F)(F)F)c(N=CN(C)C)o1	x	4	1	x	11	5.8	x
Cc1ccc(SCCC(=O)Nc2cc(C)on2)cc1	5863	-2	-5	-7	4	8.1	-14
Cc1cnc(C(=O)OC(C)C(=O)Nc2cccc3ccccc23)cn1 (stereo unspecified)	5977	-2	16	-1	0	1.7	-8
CN(C(=O)COC(=O)c1ccccc1NCCO)C1CCS(=O)(=O)C1 (stereo unspecified)	4868	2	4	-9	8	4.3	-23
CC(=O)CSc1nnc(-c2ccc(S(=O)(=O)N3CCOCC3)cc2)n1C	6054	7	6	0	-6	-1.0	-19
CCOc1ccc(C(C)=O)cc1CC(C(N)=O)C(N)=O	4640	-1	13	-1	-11	-8.3	-7
Cn1ncc(Cl)c1C(=O)N1CCN(S(=O)(=O)c2ccc(Cl)s2)CC1	5930	4	3	-8	7	0.0	-16
COCCN(C(=O)c1csnn1)C(C(=O)NC1CCCC1)c1ccccc1F (stereo unspecified)	3767	4	7	-8	9	1.8	-20
COc1cc([N+](=O)[O-])cc(CN2CCCCC2)c1O	16919*	11	-4	2	17	5.9	-13
O=S(=O)(Nc1cccc(-c2ccc(N3CCCCCC3)nn2)c1)c1cccc(F)c1	5380	12	4	5	13	1.3	-104
O=C(Cc1ccc([N+](=O)[O-])cc1)N1CCN(Cc2ccc3c(c2)OCO3)CC1	4233	-1	-5	-11	5	0.6	x
Cc1cc2oc(=O)cc(CN3CCCc4ccccc43)c2cc1C	5447	x	x	1	19	3.3	-2
COCc1cc(C)nc(Nc2ccccc2OC)c1C#N	4062	9	5	-2	4	4.3	-27
Cc1nc2ccccc2c(=O)n1CCc1ccc(O)cc1	3307	3	-6	1	15	1.1	-14
COc1cc2c(cc1OC)CN(C(=O)c1cc3ccccc3oc1=O)CC2	4307	x	x	-3	1	6.4	1
CN1CCN(C(=O)C2CCCN(S(=O)(=O)c3ccc(Cl)cc3)C2)CC1 (stereo unspecified)	u	2	14	4	1	-2.5	1
COC(=O)c1ccc(CSc2nnc(-c3ccncc3)o2)cc1	2763	4	4	-1	1	-2.2	-11
COc1cc(OC)cc(C(=O)NCCC(c2ccccc2)c2ccccc2)c1	2890	-4	-9	-3	14	-1.8	-23
CCc1c(C)sc(NC(=O)C2CC2c2ccccc2)c1C(N)=O (stereo unspecified)	8357	7	7	19	-4	-1.4	-7

Compounds from the list above with a furan ring, fused or not (3):
SMILES	Autofluor counter	Mtb hypoxia rep	Mtb hypoxia rep growth	BJeLR viability	Sa ugtP lethal	Sa RN4220 lethal	PrP 5UTR inh
Cc1ccc2oc(C(=O)N3CCC(O)(c4ccccc4)CC3)c(C)c2c1	4293	13	7	10	21	-7.3	-14
CCNC(=O)c1ccc(C23CC4CC(CC(C4)C2)C3)o1	4316	-7	5	-2	6	3.8	-15
CCOC(=O)c1cc(C(O)(C(F)(F)F)C(F)(F)F)c(N=CN(C)C)o1	x	4	1	x	11	5.8	x

Continued.
SMILES	Autofluor counter	Mtb hypoxia rep	Mtb hypoxia rep growth	BJeLR viability	Sa ugtP lethal	Sa RN4220 lethal	PrP 5UTR inh
CC(C)Sc1cc(N2CCCC2)nc(-c2ccc(F)cc2)n1	3240	4	10	-9	39	-15	-20
COc1ccc(/C=C(/NC(=O)c2ccccc2)C(=O)NN=Cc2ccncc2)cc1	x	2	-4	x	7	5.5	x
COc1ccc([N+](=O)[O-])cc1NC(=O)c1ccc(N2C(=O)CCC2=O)cc1	4099	6	-4	2	-2	-1.5	-29
O=C(CN1CCN(Cc2ccc(F)cc2Cl)CC1)NCc1ccccc1	4180	21	6	8	1	6.6	-1
C=CCC(CC(=O)N(CCO)Cc1ccccc1)C(=O)NC(COC(=O)C(CC=C)CC(=O)OC(C)(C)C)C(C)(C)C (stereo unspecified)	x	-2	-2	x	-5	5.1	x
COc1ccc(NC(=O)NCc2ccccc2F)cc1OC	3360	7	-1	4	2	-4.8	-28
CCOc1ccc(NC(=O)c2cc3ccccc3cc2O)cc1	2931	5	-3	-1	-3	4.2	-64
CCOc1cccc(-c2c(C(=O)NN=Cc3ccoc3)nnn2-c2nonc2N)c1	x	12	5	x	0	2.9	x
COCCN(Cc1ccccc1)C(=S)Nc1ccc(OC(F)F)cc1	2506	4	-6	1	17	-1.7	-19
CCOC(=O)N1CCC(NCCNC(=O)c2cccs2)CC1	4242	-3	0	-11	0	-3.7	-6
CCOC(=O)C1(CCCc2ccccc2)CCN(C(=O)c2ocnc2C)CC1	4160	4	5	8	2	12	-21
CC(=O)OC1(c2ccccc2)CCN(C)C2CCCCC21 (stereo unspecified)	10179	-1	-2	5	3	1.5	0
c1cnc2c(Oc3ncnc4sccc34)cccc2c1	3420	-5	-4	-4	6	1.0	-30
Cc1cc(-c2nc(C)c(-c3nnc(SCC(=O)Nc4cc(Cl)cc(Cl)c4)n3C)s2)no1	4018	8	3	8	-6	6.4	0
O=C(CCCCCn1c(=S)[nH]c2ccc(N3CCOCC3)cc2c1=O)NCc1ccc(Cl)cc1	3773	7	-4	-2	-5	-4.7	-68
COc1cccc(NC(=S)Nc2cc(C)cc(C)n2)c1	u	12	4	-3	21	2.6	-48
COc1ccc(-c2ccc(=O)n(Cc3cccc([N+](=O)[O-])c3)n2)cc1	4278	-2	-10	-4	2	1.8	3
